High-throughput results from PubChem.
Calb FLC: C. albicans growth inhibition with fluconazole, primary screen, CaCi-2 strain, Alamar Blue fluorescence; AID 1979, 2009; C. albicans CaCi-2 (fluconazole-resistant clinical isolate) + fluconazole, 48 h; growth inhibition, % (concentration not given with the values); 300,000 tested, 0.57% active;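 active = most replicates above 75%; inconclusive = exactly half above 75%; inactive = most below 75%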;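 note: all wells also contain fluconazole at 8 µg/ml as a sub-toxic cotreatment; 0% = median of DMSO wells and 100% = median of geldanamycin control wells; wells of about 8 µL received 7.5 nL stock; the first replicate is given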
MLL AF4-AF9 inh: inhibitors of AF4 peptide binding to AF9, primary screen, biochemical, AlphaScreen, biotin-AF4 peptide, FLAG-AF9, single point; Protein AF-9 (Homo sapiens), P42568; inhibition, % at 10 µM; 350,000 tested, 0.47% active;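 active = every replicate reaching a set inhibition limit, whatever the replicate mean, cut at about 25% in these data; inconclusive = mean inhibition reaches that limit but some replicates miss it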;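 note: 0% = plate neutral control median and 100% = total signal loss; the record names both 10 and 1 µM as test concentration; the first replicate is given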
Target sequence (P42568 whole entry, looked up): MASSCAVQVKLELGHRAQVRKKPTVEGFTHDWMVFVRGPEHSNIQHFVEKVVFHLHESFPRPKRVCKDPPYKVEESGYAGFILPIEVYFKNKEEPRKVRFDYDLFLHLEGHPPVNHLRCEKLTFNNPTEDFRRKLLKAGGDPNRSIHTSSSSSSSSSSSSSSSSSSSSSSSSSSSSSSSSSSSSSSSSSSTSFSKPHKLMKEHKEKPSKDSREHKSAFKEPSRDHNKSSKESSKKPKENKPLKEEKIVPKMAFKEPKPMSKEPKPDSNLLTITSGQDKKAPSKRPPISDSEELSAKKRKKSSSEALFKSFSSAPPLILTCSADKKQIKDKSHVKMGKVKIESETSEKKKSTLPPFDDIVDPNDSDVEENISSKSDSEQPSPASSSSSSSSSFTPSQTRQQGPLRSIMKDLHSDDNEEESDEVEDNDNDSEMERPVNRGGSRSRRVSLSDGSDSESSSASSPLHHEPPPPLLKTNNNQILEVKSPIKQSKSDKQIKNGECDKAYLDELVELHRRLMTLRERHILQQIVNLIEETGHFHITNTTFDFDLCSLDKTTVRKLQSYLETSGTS
Vif TR-FRET: inhibitors of Vif binding to APOBEC3G peptide, primary screen, biochemical, TR-FRET, GST-Vif 1-94, biotin-A3G peptide, dose response retest (AID 1117319) | Virion infectivity factor (Human immunodeficiency virus type 1 group M subtype B (isolate … | TR-FRET GST-Vif / biotin-A3G peptide binding; higher % means a stronger effect; test concentration not given here; strong numbers were not always called active | 260,000 tested, 0.57% active | one-dose inhibition, %; IC50 in µM for titrated hits;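 active = above the screen mean plus three standard deviations and confirmed in dose response; inconclusive = results disagree or hit not tested in dose response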;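 note: Vif residues 1-94 fused to GST binding biotinylated APOBEC3G peptide 110-148; 0% = full assay without inhibitor and 100% = GST in place of GST-Vif; retest series ran down from 100 µM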
LANA-H2A inh: blockers of LANA interaction with H2A/H2B – biochemical, FP readout, HTS, primary screen. cell-free LANA-H2A/H2B peptide, fluorescence polarization. 320,000 tested, 0.6% active. Protein LANA1 (Human herpesvirus 8 type P (isolate GK18)), Q9QR71. AID 2629, 2010. inhibition, % (no concentration beside the values); in the data active = inhibition mostly above about 10%, no sharp cut-off; inactive = mostly below about 6.7%;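 note: stock transfer was 7.5 nL into about 10 µL; 0% = median of vehicle wells and 100% = median of positive control wells; one replicate is shown; the record names a cut of 25% in any replicate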
A1 inh: caspase 3/7 activation in MEF A1-2A-BIM cells, primary screen, A1 inhibitor project, cell-based, luminescence, HTS; Caspase-Glo 3/7 luminescence, 3 h; percent of clofoctol response, vehicle zero; caspase activation, % (concentration not given with the values); 330,000 tested, 0.066% active;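 active = over half of replicate activation scores above 10%, or exactly half above 10 with the replicate mean above 10; inconclusive = replicate mean below 10 yet half the replicates above 10; inactive = over half of replicates below 10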;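 note: wells of about 30 µL received 50 nL stock; many hits fall short of the cut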
T cruzi repl: inhibitors of intracellular T. cruzi growth, primary screen, luminescence, NIH3T3 host cells | inhibition, % (test concentration not listed) | AID 1885, 2009 | 300,000 tested, 1.4% active | T. cruzi beta-gal in NIH3T3, 90 h;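 active = mean inhibition across valid replicates above about 55%, limit read from the data; inconclusive = mean below that limit but half or more replicates reach it; inactive = mean below it, under half of replicates reach it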;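 note: signal also drops with host cell toxicity which is not excluded here; 0% = plate median of DMSO wells and 100% = zero luminescence signal; higher percent means less beta-gal luminescence so fewer parasites; stock transfer was 50 nL into about 50 µL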
RanGTP-Impb inh: inhibitors of RanGTP-importin-beta interaction, primary screen, biochemical, FRET, CFP-Ran, YFP-importin-beta, homogeneous; cell-free CFP-Ran/YFP-importin-beta FRET ratio; inhibition, % (no concentration beside the values); 300,000 tested, 1.1% active; AID 2216, 2009;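 active = most replicates above 15%; inconclusive = exactly half above 15%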;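 note: 0% = DMSO wells and 100% = Ran loaded with GDP instead of GTP; wells of about 40 µL received 100 nL stock; the first replicate is given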
Beta apoptosis: inhibitors of cytokine-induced beta cell apoptosis, primary screen, luminescence; INS-1E cytokine-induced death, ATP luminescence, 48 h; percent of positive-control rescue, neutral wells zero; protection from apoptosis, % (no concentration beside the values); 300,000 tested, 0.8% active; AID 435005, 2010;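 active = all replicates at 75% or more, or half of them and the mean; inconclusive = half reach 75% but not the mean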;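 note: 0% = cytokine-treated negative control wells and 100% = positive control rescue; higher means more ATP so stronger rescue from cytokine killing; wells of about 40 µL received 100 nL stock; the first replicate is given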
An asterisk follows results filed as active; ? = inconclusive; · = no result given.

SMILES | Calb FLC | MLL AF4-AF9 inh | Vif TR-FRET | LANA-H2A inh | A1 inh | T cruzi repl | RanGTP-Impb inh | Beta apoptosis
Cc1ccc(/C=C/C(=O)OCC(=O)Nc2cccnc2Cl)cc1 | · | -1.6 | 1% | 0.5 | -0.8 | · | · | -1
COc1ccc(Cl)cc1NC(=O)C1CC(=O)N(c2ccc(F)cc2)C1 (stereo not given) | -1 | · | 7% | -1.8 | 1.7 | -11 | 6.8 | -1
CCOc1ccc(C(C)=O)cc1CSc1nnc(N)s1 | ? | -1.7 | 8% | -0.4 | -2.0 | -2 | -7.6 | 2
CC(CN1CCC(n2nccc2NC(=O)C2CCCC2)CC1)c1ccccc1 (stereo not given) | -5 | -5.7 | · | -1.5 | 2.2 | 12 | 0.1 | 0
Oc1ccc(CNc2ccc(F)cc2)c2cccnc12 | 34 | · | 13% | 0.0 | 0.1 | 55* | -2.7 | 92*
Clc1ccccc1Nc1ncnc2c1nnn2Cc1ccccc1 | 0 | 4.2 | 8% | 4.4 | 0.0 | -9 | -1.2 | -5
C=CCc1ccccc1OCC(O)CN1C(=O)c2ccccc2C1=O (stereo not given) | 8 | 2.2 | · | 13* | -0.5 | -3 | 7.1 | 0
Clc1ccc(-c2nc3ncccn3c2Nc2ccc3c(c2)OCO3)cc1 | 5 | · | -4% | -0.1 | 0.3 | 29 | 1.3 | 6
Cc1ccc(SCC(=O)NNC(=O)c2ccc(S(C)(=O)=O)cc2)cc1 | 1 | -0.2 | · | 5.5 | -0.1 | -10 | -2.1 | -5
Cc1ccc(OC(=O)c2cccc(C(=O)Oc3ccc(C)cn3)n2)nc1 | 4 | · | 2% | -3.3 | 0.6 | -3 | 2.8 | -3
COc1ccccc1C(C)NC(=O)CCNC(=O)c1ccc(Cl)cc1 (stereo not given) | · | -1.8 | · | -6.1 | -1.8 | · | · | 2
CCOC(=O)C1(CCCc2ccccc2)CCN(C(=O)CCCn2cncn2)CC1 | 11 | 0.4 | 7% | -5.5 | 0.5 | 0 | -2.1 | 0
O=C(Nc1ccc(F)cc1)N1CCN2C(=O)c3ccccc3C12c1ccccc1 (stereo not given) | 0 | · | 13% | -2.3 | 1.3 | 24 | 4.5 | ·
C=C(C)CSc1[nH]c(=O)cc(C)c1C#N | 86* | -3.7 | 1% | -3.2 | 0.1 | -14 | 6.1 | 4
Cc1cc(C)c(NC(=O)CSc2nc3ccc(N4C(=O)c5ccccc5C4=O)cc3s2)c(C)c1 | -10 | -1.1 | -8% | 1.5 | 1.2 | -13 | -0.5 | -4
CC1(C)CC(=O)C2=C(C1)Nc1ccccc1N(C(=O)C1CC1)C2c1ccco1 (stereo not given) | ? | -2.5 | 5% | 1.8 | -0.5 | 13 | -0.3 | -5
CC1=C(OC(=O)c2ccccc2)C(C)(C)C(c2ccccc2)OC1=O (stereo not given) | -12 | · | -2% | -0.4 | -0.4 | -8 | 2.5 | 1
CCn1c(=O)c(C(=O)NCc2ccccn2)c(O)c2ccccc21 | 14 | · | 68% | -4.6 | 0.3 | 4 | 0.3 | 2
COc1cccc(NC(=O)CSc2nc3c(sc4ccccc43)c(=O)n2CCCN2CCCC2)c1 | 0 | 21 | · | -0.2 | 0.6 | -3 | -1.5 | -4
Cc1nc(Cl)c(C(=O)NC(=O)NCc2ccccc2)c(C)c1Cl | 2 | · | 20% | · | 0.6 | 7 | 0.2 | 2
CC(=O)c1sc2nc(CSc3nncn3C)[nH]c(=O)c2c1C | -8 | -1.7 | 11% | -2.6 | -0.3 | -10 | -3.9 | -6
CCOc1ccc(CC(=O)Nc2c(C(N)=O)oc3ccccc23)cc1OCC | 1 | · | 15% | 0.4 | -0.4 | 0 | 4.8 | -3
CN(c1ccccc1)S(=O)(=O)c1ccc(C(=O)N2CCCC2)cc1 | · | -3.2 | · | 1.4 | 1.6 | · | · | 2
COc1ccc(NS(=O)(=O)c2ccc(N3CCN(CCO)CC3)c([N+](=O)[O-])c2)cc1 | -8 | 4.1 | · | -15 | 0.7 | -25 | -11 | 34
COc1ccc(OC)c(Cc2nnc(CCC(=O)NC3CCCCC3)o2)c1 | -3 | 2.1 | 9% | 0.8 | 1.3 | 1 | -7.4 | -1
O=C(CO)N/N=C/c1c2ccccc2cc2ccccc12 | 38 | 5.6 | 15% | 8.1 | -2.0 | 3 | 6.9 | ·
COc1cccc(-c2cc(C(=O)NCc3ccco3)no2)c1 | 22 | · | 2% | 2.3 | -0.2 | -6 | 12 | -4
CC(=O)c1ccc(NC(=S)NC2CCCC(C)C2C)cc1 (stereo not given) | -12 | -2.1 | -8% | 1.5 | 1.3 | 10 | -1.7 | -12
CC(Sc1nc(-c2ccc(F)cc2)cs1)C(=O)N1c2ccccc2CC1C (stereo not given) | -5 | 1.0 | · | 5.9 | 0.6 | 26 | -1.1 | 0
COc1cc(C(=O)N2CCC(n3c(C)nc4cc(F)ccc43)CC2)cc(OC)c1OC | -9 | · | -2% | 2.2 | 0.0 | 9 | 2.0 | -2
CC(C)COc1ccc(-c2nn(-c3ccccc3)cc2C(=O)Nc2nccs2)cc1 | 21 | · | 0% | 5.7 | -0.6 | 64* | 1.6 | ·
Cc1c(NC(=O)c2ccc([N+](=O)[O-])o2)cccc1-c1nc2ncccc2o1 | 24 | -2.8 | · | 4.0 | 0.4 | 39 | 1.4 | 6
CCN(Cc1ccccc1)C(=O)c1ccc(NC(=O)c2ccc(OC)cc2)cc1 | -1 | 0.0 | · | -1.0 | -0.2 | 2 | -0.7 | 4
O=C(Nc1cccc(C(F)(F)F)c1)c1cccnc1N1CCCC1 | -12 | · | -1% | 7.0 | 0.7 | -11 | 0.0 | -15
COc1ccc2[nH]c(=O)c(CN(Cc3cccs3)S(=O)(=O)c3c(C)ccc4nsnc34)cc2c1 | ? | · | 2% | -6.5 | -0.2 | 6 | -2.7 | ·
COc1ccc(-n2c(COc3ccccc3)nnc2SCc2ccc(C#N)cc2)cc1 | 8 | · | 0% | -2.3 | -0.3 | 31 | 0.8 | 0
O=S(=O)(c1cccs1)N1CN(CC2CCCO2)c2nc3ccccc3nc21 (stereo not given) | 26 | -26 | 3% | 0.3 | -1.4 | -1 | 5.1 | -4
Cc1nnc(C)n1/N=C/c1ccccn1 | -9 | · | 3% | -3.5 | 0.3 | -6 | 3.8 | 1
CC(C)c1ccc(OCC(=O)Nc2ccccc2C(=O)N2CCOCC2)cc1 | 1 | -0.3 | · | -7.0 | -0.4 | -2 | 3.4 | -6
COc1cccc(-c2nnc(NC(=O)c3ccc(S(=O)(=O)N4CCOCC4)cc3)o2)c1 | -6 | · | 18% | 2.3 | 1.3 | -97 | 0.3 | 43
Nc1[nH]c(=S)[nH]c(=O)c1-c1ccccc1 | · | · | -3% | 9.2 | -0.3 | · | · | 5
COc1ccccc1S(=O)(=O)Nc1cc(C)nn1-c1ccc(C)cc1 | 23 | 0.1 | · | -16 | 1.2 | -1 | 2.0 | -3
Nc1cccc(-c2nc3ncccc3o2)c1 | 0 | 1.0 | · | 0.4 | -0.8 | 7 | 0.7 | 5
N/C(=N\O)c1ccc(Cl)cc1Cl | -7 | -0.6 | 8% | -5.0 | 0.5 | -3 | -1.3 | 3
Cc1ccccc1N1C(=O)N(c2cccc(C(F)(F)F)c2)C2CS(=O)(=O)CC21 (stereo not given) | 1 | · | 2% | 4.0 | -0.4 | 6 | 3.5 | -1
CCCCCN(C(=O)CCC(=O)OCCOc1ccc(OCC)cc1)c1c(N)n(CCCC)c(=O)[nH]c1=O | 1 | 0.8 | 2% | -4.2 | 0.5 | -7 | -2.1 | -2
Cc1ccc(C=Nc2ccc(N(C)C)cc2)o1 | 2 | 59* | ? | 3.1 | -0.2 | 61* | -3.7 | 44
Cc1oc(-c2ccccc2F)nc1CS(=O)(=O)CC(=O)N1CCOCC1 | -4 | -15 | 0% | 0.9 | 0.6 | -16 | 4.7 | -5
Cc1ccc(NC(=O)c2cc(N3C(=O)C=CC3=O)ccc2N2CCOCC2)cc1Cl | 8 | 12 | ? | -6.0 | 15* | 55* | ? | -5
Cn1c(=O)cc(Nc2ccccc2)[nH]c1=O | 8 | -0.7 | 3% | -0.6 | -0.4 | 10 | ? | 1
CCOc1ccc(N(CC(=O)NC(C)(C)C)S(=O)(=O)c2c(C)noc2C)cc1 | -1 | -2.0 | 5.1µM* | -2.3 | -0.2 | 3 | 1.5 | 2
O=C(CCSc1ccccc1)NCCN1CCOCC1 | -38 | · | 4% | 1.0 | -0.4 | -20 | 4.4 | 4
Cc1ccc(S(=O)(=O)N2CCC(C(=O)OCC(=O)NCc3cccc(Cl)c3)CC2)cc1C | · | 0.2 | · | -2.6 | 1.3 | · | · | -11
CCC(NC(=O)c1ccccc1Br)c1ccccc1 (stereo not given) | 17 | -1.4 | 8% | -3.1 | 0.5 | -4 | 0.4 | -3
O=C(N/N=C\c1ccc(F)cc1)c1cc(OCC(F)(F)F)ccc1OCC(F)(F)F | 8 | · | 4% | 1.8 | -0.2 | -12 | 5.6 | 0
CCOC(=O)C1CCN(c2cc(=O)n(-c3ccc(OC)cc3)c(=O)[nH]2)CC1 | -8 | -12 | 2% | 1.5 | -0.3 | -2 | -3.5 | -3
CN(C)S(=O)(=O)c1cccc(C(=O)N(Cc2ccc(F)cc2)Cc2ccco2)c1 | 4 | · | 16% | -1.8 | 0.1 | 3 | 7.3 | 3
CCN(CC)CCNC(=O)c1cc2cc(Br)ccc2s1 | -4 | 0.0 | -9% | 1.4 | 0.3 | 49 | 2.3 | 0
CCOC(=O)C1CCN(C(=O)CCCn2nc(C)c3c(C)n(-c4ccc(C)cc4)nc3c2=O)CC1 | 7 | 1.6 | · | 3.3 | 0.6 | 5 | 4.9 | -4

Part of the list above, with two lines to a compound.
Order of results: Calb FLC | MLL AF4-AF9 inh | Vif TR-FRET | LANA-H2A inh | A1 inh | T cruzi repl | RanGTP-Impb inh | Beta apoptosis
- CCN(CC)CCNC(=O)c1cc2cc(Br)ccc2s1
→ -4 | 0.0 | -9% | 1.4 | 0.3 | 49 | 2.3 | 0
- Cc1ccc(S(=O)(=O)N2CCC(C(=O)OCC(=O)NCc3cccc(Cl)c3)CC2)cc1C
→ · | 0.2 | · | -2.6 | 1.3 | · | · | -11
- Nc1cccc(-c2nc3ncccc3o2)c1
→ 0 | 1.0 | · | 0.4 | -0.8 | 7 | 0.7 | 5
- Cc1oc(-c2ccccc2F)nc1CS(=O)(=O)CC(=O)N1CCOCC1
→ -4 | -15 | 0% | 0.9 | 0.6 | -16 | 4.7 | -5
